NPYLR7 agonist = agonists of mosquito NPYLR7 receptor, primary screen, cell-based, Aedes aegypti, calcium fluorescence, mosquito biting behavior. Aedes aegypti neuropeptide Y-like receptor 7 (NPYLR7). HEK293T NPYLR7/Galpha15, GCaMP6s calcium fluorescence. activation, % at 10 µM. 0.15% of 270,000 active. AID 1259423, 2018; in the data active = activation above about 40%;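 note: 0% = vehicle and 100% = reference agonist at the receptor; some compounds past the cut are filed as inactive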
NPYLR7 agonist max-min = further read-out of NPYLR7 agonist, marked with its call; activation, %; measured here: Max-Min RFU normalised activation; some inactives read as strong as hits;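 span of the calcium signal over five minutes; 0% = vehicle and 100% = native peptide agonist; compound fluorescence can raise it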
* marks the source's active call; other numbers are inactive results; & = joins results of further samples.

Screening O=C(NCc1nc2ccccc2c(=O)[nH]1)C1CC2(CCNCC2)CN1 (stereo unspecified) returned NPYLR7 agonist 3 and NPYLR7 agonist max-min 0.
`CCN1CCN(CC(=O)N2N=C(c3ccccc3Cl)CC2c2ccc(OC)cc2OC)CC1` (stereo unspecified) gave NPYLR7 agonist 9 and NPYLR7 agonist max-min 12.
COc1cccc(CC(CC(=O)O)C(=O)Nc2ccc([N+](=O)[O-])cc2)c1 (stereo unspecified) was read as NPYLR7 agonist -2 and NPYLR7 agonist max-min -3.
Screening O=C(Nc1ccc(-c2nc3ccccc3o2)cc1)c1cc([N+](=O)[O-])ccc1Cl returned NPYLR7 agonist 3 and NPYLR7 agonist max-min -7.
For Cc1cc(C)c(NC(=O)CN(C)C(=O)CSc2ccc(F)cc2F)c(C)c1 the results were NPYLR7 agonist 0 and NPYLR7 agonist max-min -2.
CSCc1noc(CN2CCCC3(C2)CN(C)C(=O)O3)n1 (stereo unspecified) was read as NPYLR7 agonist 2 and NPYLR7 agonist max-min 1.
Cc1cc(C(=O)CN2C(=O)C(=O)N(C3CCCC3)C2=O)c(C)n1C1CC1 was read as NPYLR7 agonist 2 and NPYLR7 agonist max-min 12.
`CCCCC1CCC(C(=O)Nc2c(C)nc3ccc(Cl)cn3c2=O)CC1` (stereo unspecified) gave NPYLR7 agonist 6 and NPYLR7 agonist max-min 4.
Screening Cc1ccc(-n2nnc(CC(=O)Nc3ccc(F)c(N4CCCC4=O)c3)c2C)cc1 returned NPYLR7 agonist -17 and NPYLR7 agonist max-min -16.
For Cc1cc(C(C)(C)C)cc(C)c1CCNC(=O)C1CCN(c2cnccn2)CC1 the results were NPYLR7 agonist 0 and NPYLR7 agonist max-min 1.
Screening Cc1ccc(C)c(-c2[nH]ncc2CN2CCCC(O)(CO)CC2)c1 (stereo unspecified) returned NPYLR7 agonist 1 and NPYLR7 agonist max-min 5.
`Cc1ccc(C)c2sc(OC3CCN(C(=O)Cn4c(=O)oc5ccccc54)CC3)nc12` gave NPYLR7 agonist 4 and NPYLR7 agonist max-min 2.
Screening CC(C)CC(=O)Nc1ccc(N(C)C)c(CN(Cc2ccc(F)cc2)C(=O)c2cccs2)c1 returned NPYLR7 agonist 17 and NPYLR7 agonist max-min 17.
O=C(c1scc2c1OCCO2)N1Cc2cnn(CCO)c2C1 was read as NPYLR7 agonist 4 and NPYLR7 agonist max-min 3.
For Cc1ccc(C(=O)Nc2c(N)nc(SCC(=O)Nc3cc(C)ccc3C)[nH]c2=O)cc1 the results were NPYLR7 agonist -8 and NPYLR7 agonist max-min -2.
`CCCCSc1ncc(C2CC(=O)Nc3snc(C)c32)cn1` (stereo unspecified) gave NPYLR7 agonist 22 and NPYLR7 agonist max-min 7.
`C=CCOC(=O)C1=C(C)N(CC)C(=O)NC1c1cc2c(cc1Br)OCO2` (stereo unspecified) gave NPYLR7 agonist -2 and NPYLR7 agonist max-min -8.
`COc1ccc(-n2nc(C)c(-c3ccccc3)c2NC(=O)CN(CC(C)C)C(=O)CCc2ccccc2)cc1` gave NPYLR7 agonist 2 and NPYLR7 agonist max-min 6.
c1ccc(-c2noc(CCC3CCCCC3)n2)nc1 was read as NPYLR7 agonist 1 and NPYLR7 agonist max-min 0.
CCOC(=O)Cn1ncc2c1CCN(C(=O)c1cnc3cc(C)nn3c1C)C2 was read as NPYLR7 agonist 1 and NPYLR7 agonist max-min 28.
Screening COc1cccc(C(=O)CSc2nnc(NC(=O)CC(C)(C)C)s2)c1 returned NPYLR7 agonist -2 and NPYLR7 agonist max-min 10.
CN1C(=O)C2(CCCN(C(=O)CCn3cnnc3)C2)c2ccccc21 (stereo unspecified) was read as NPYLR7 agonist 13 and NPYLR7 agonist max-min 18.
For Cc1ccccc1COc1cccn2c(N(C)CC3CC3)c(C)nc12 the results were NPYLR7 agonist 2 and NPYLR7 agonist max-min -10.
CN(Cc1ccccc1)S(=O)(=O)NC(=O)c1ccc(S(C)=O)cc1 (stereo unspecified) was read as NPYLR7 agonist 11 and NPYLR7 agonist max-min 9.
`CN(Cc1ccncc1)C(=O)NC1CCN(CC2CCCC2)C1` (stereo unspecified) gave NPYLR7 agonist 3 and NPYLR7 agonist max-min 1.
Screening O=C(c1ccccc1C1CCNC1)N1CCN(C/C=C/c2ccccc2)CC1 (stereo unspecified) returned NPYLR7 agonist 0 and NPYLR7 agonist max-min -1.
CC(CC(=O)NCC1(CCO)CCOCC1)c1ccc(F)cc1 (stereo unspecified) was read as NPYLR7 agonist 0 and NPYLR7 agonist max-min -1.
`CC1CN(S(=O)(=O)NC(C)c2ccc(C#N)cc2)CC(C)O1` (stereo unspecified) gave NPYLR7 agonist 4 and NPYLR7 agonist max-min 0.
O=C(NCc1ccncc1)c1csc(CSc2nnc(-c3ccco3)n2-c2ccc(Cl)cc2Cl)n1 was read as NPYLR7 agonist -1 and NPYLR7 agonist max-min 9.
Screening C[C@]12CCC(=O)C=C1C=CC1C2CC[C@@]2(C)C1CC[C@@]21CCC(=O)O1 (stereo partly specified) returned NPYLR7 agonist -6 and NPYLR7 agonist max-min -15.
C/C(N)=C(/C#N)C(=O)CSc1nnc(-c2ccc(C(C)(C)C)cc2)n1Cc1ccco1 was read as NPYLR7 agonist 2 and NPYLR7 agonist max-min 2.
Screening Cc1[nH][nH]c(=O)c1C(c1c(C)[nH][nH]c1=O)c1c[nH]c2ccccc12 returned NPYLR7 agonist 4 and NPYLR7 agonist max-min 1.
Screening CCC(C)Oc1ccc(CN2CCC3(CC2)NCCNC3=O)cc1Cl (stereo unspecified) returned NPYLR7 agonist -3 and NPYLR7 agonist max-min -5.
Screening Cc1ccc(C)c(-c2nnc(OCC(=O)NC(C)(C)C)c3ccccc23)c1 returned NPYLR7 agonist 6 and NPYLR7 agonist max-min 3.
`O=C(C(=O)N1CCC2(CC1)NCCNC2=O)c1ccccc1` gave NPYLR7 agonist 16 and NPYLR7 agonist max-min 15.
CC1CCN(c2nnc(SCC(=O)NC3CCCC3)n2C2CC2)CC1 was read as NPYLR7 agonist 1 and NPYLR7 agonist max-min 1.
For CCSC(=O)CCCCCCCCCCCO the results were NPYLR7 agonist -1 and NPYLR7 agonist max-min -1.
C/C(=C\c1ccccc1)c1nc(-c2c(F)cccc2F)no1 was read as NPYLR7 agonist -7 and NPYLR7 agonist max-min -8.
`COc1ccc(NC(=O)Cn2nnc(-c3ccccc3)c2COc2ccc3ccccc3c2)cn1` gave NPYLR7 agonist 7 and NPYLR7 agonist max-min 4.
For COc1ccc(-n2nnc3c(=O)n(CC(=O)NC4CCCC4)cnc32)cc1OC the results were NPYLR7 agonist 0 and NPYLR7 agonist max-min -6.

Structural class: the entries above containing an NH in an aromatic ring.
Screening O=C(NCc1nc2ccccc2c(=O)[nH]1)C1CC2(CCNCC2)CN1 (stereo unspecified) returned NPYLR7 agonist 3 and NPYLR7 agonist max-min 0.
Screening Cc1ccc(C)c(-c2[nH]ncc2CN2CCCC(O)(CO)CC2)c1 (stereo unspecified) returned NPYLR7 agonist 1 and NPYLR7 agonist max-min 5.
For Cc1ccc(C(=O)Nc2c(N)nc(SCC(=O)Nc3cc(C)ccc3C)[nH]c2=O)cc1 the results were NPYLR7 agonist -8 and NPYLR7 agonist max-min -2.
Screening Cc1[nH][nH]c(=O)c1C(c1c(C)[nH][nH]c1=O)c1c[nH]c2ccccc12 returned NPYLR7 agonist 4 and NPYLR7 agonist max-min 1.

Next results.
`Cc1ccc2nc(C)c(NC(=O)Nc3ccc(OC(F)(F)F)cc3)c(=O)n2c1` gave NPYLR7 agonist 1 and NPYLR7 agonist max-min -1.
`COC(=O)c1ccccc1NC(=O)CSc1ncnc2nc(N3CCc4ccccc4C3)sc12` gave NPYLR7 agonist 12 and NPYLR7 agonist max-min 6.
`O=C(Cc1ccc(F)cc1)NCCNc1cc(-n2cccn2)ncn1` gave NPYLR7 agonist -10 and NPYLR7 agonist max-min -14.
For Cc1cccc(S(=O)(=O)NCCn2nc(-c3cccnc3)ccc2=O)c1 the results were NPYLR7 agonist 4 and NPYLR7 agonist max-min -6.
For Cn1c(=NN=Cc2ccc(O)c(O)c2O)sc2ccccc21 the results were NPYLR7 agonist -6 and NPYLR7 agonist max-min -12.
For O=S1(=O)CCC(N2CCN(c3ncnc4sc5c(c34)CCCCC5)CC2)C1 (stereo unspecified) the results were NPYLR7 agonist 2 and NPYLR7 agonist max-min 0.
CCOC(=O)CN1C(=O)CCN(C(=O)CC2CCCC2)CC(O)c2ccccc21 (stereo unspecified) was read as NPYLR7 agonist 5 and NPYLR7 agonist max-min 13.
For COc1ccc(C2CCCN2C(=O)C2CCN(c3ncc(C(F)(F)F)cc3Cl)CC2)cc1OC (stereo unspecified) the results were NPYLR7 agonist 1 and NPYLR7 agonist max-min -5.
Screening CN1CCN(c2nc(NCCc3ccccc3)nc(N)c2[N+](=O)[O-])CC1 returned NPYLR7 agonist 2 and NPYLR7 agonist max-min 10.
CCCc1c(-c2ccccc2)ncn1Cc1noc(-c2ccc3c(c2)OCO3)n1 was read as NPYLR7 agonist 23 and NPYLR7 agonist max-min 6.
CCn1c(C)cc(O)c(C(c2ccc(C(C)C)cc2)c2c(O)cc(C)n(CC)c2=O)c1=O was read as NPYLR7 agonist 2 and NPYLR7 agonist max-min 3.
For Cc1cccc(Cl)c1CNC(=O)c1c(C)noc1-c1cccc(C(F)(F)F)c1 the results were NPYLR7 agonist -1 and NPYLR7 agonist max-min 0.
`CC(C)CC(NC(=O)Cn1nnn(-c2ccccc2)c1=O)c1ccccc1` (stereo unspecified) gave NPYLR7 agonist 1 and NPYLR7 agonist max-min 5.
CCN1C(=O)C(=O)N(CC(=O)c2cc(C)n(CCC3=CCCCC3)c2C)C1=O was read as NPYLR7 agonist 1 and NPYLR7 agonist max-min 1.
`COC(=O)c1cccc(CN(CC(=O)N(CCc2ccccc2)Cc2ccc(C)o2)C2CC2)c1` gave NPYLR7 agonist 7 and NPYLR7 agonist max-min 20.
For O=c1[nH]nc(SCc2ccc(CSc3n[nH]c(=O)[nH]c3=O)cc2)c(=O)[nH]1 the results were NPYLR7 agonist 8 and NPYLR7 agonist max-min 6.
Screening O=C(c1ccc(F)cc1)N1CCN(CC(OCc2ccc(C(F)(F)F)cc2)c2ccc(Cl)cc2)CC1 (stereo unspecified) returned NPYLR7 agonist 4 and NPYLR7 agonist max-min 0.
Nc1nnc(C(NC(=O)c2cnn3c2CCCC3)c2ccccc2)s1 (stereo unspecified) was read as NPYLR7 agonist 3 and NPYLR7 agonist max-min 2.
`O=S(=O)(Cc1ccc(Br)cc1)Oc1cccc2cccnc12` gave NPYLR7 agonist -5 and NPYLR7 agonist max-min -10.
`COc1ccc(CC2CCN(C(=O)c3c(C)noc3-c3cccnc3)CC2)cc1` gave NPYLR7 agonist 4 and NPYLR7 agonist max-min 10.

Next part; it opens with the 5 that closed the last part.
For O=c1[nH]nc(SCc2ccc(CSc3n[nH]c(=O)[nH]c3=O)cc2)c(=O)[nH]1 the results were NPYLR7 agonist 8 and NPYLR7 agonist max-min 6.
Screening O=C(c1ccc(F)cc1)N1CCN(CC(OCc2ccc(C(F)(F)F)cc2)c2ccc(Cl)cc2)CC1 (stereo unspecified) returned NPYLR7 agonist 4 and NPYLR7 agonist max-min 0.
Nc1nnc(C(NC(=O)c2cnn3c2CCCC3)c2ccccc2)s1 (stereo unspecified) was read as NPYLR7 agonist 3 and NPYLR7 agonist max-min 2.
`O=S(=O)(Cc1ccc(Br)cc1)Oc1cccc2cccnc12` gave NPYLR7 agonist -5 and NPYLR7 agonist max-min -10.
`COc1ccc(CC2CCN(C(=O)c3c(C)noc3-c3cccnc3)CC2)cc1` gave NPYLR7 agonist 4 and NPYLR7 agonist max-min 10.
Cc1cccc(Nc2nnc(SCC(=O)N3CCNC3=O)s2)c1 was read as NPYLR7 agonist 3 and NPYLR7 agonist max-min 3.
For Cc1sc2ncnc(SCc3nc4sc5c(c4c(=O)[nH]3)CCC(C)C5)c2c1C (stereo unspecified) the results were NPYLR7 agonist 2 and NPYLR7 agonist max-min 1.
For COc1cn(CC(=O)NCc2ccccc2Cl)c(CSc2nccc(C)n2)cc1=O the results were NPYLR7 agonist -2 and NPYLR7 agonist max-min -10.
CCOCCn1c(NCCOC)nc2c1c(=O)[nH]c(=O)n2C was read as NPYLR7 agonist 9 and NPYLR7 agonist max-min 6.
`CN(Cc1ccccc1)C(=O)CCC1CCN(C(=O)Cc2c[nH]c3ccccc23)CC1` gave NPYLR7 agonist 9&-4 and NPYLR7 agonist max-min 5&-5.
For Cc1cc(=O)[nH]c(-n2nc(C3CC3)cc2NC(=O)C23CC4CC(CC(C4)C2)C3)n1 the results were NPYLR7 agonist -2 and NPYLR7 agonist max-min -2.
`O=c1cc(-c2ccc(F)cc2)[nH][nH]1` gave NPYLR7 agonist 2 and NPYLR7 agonist max-min 3.
For Cc1nc2ccc(C(=O)N(C)Cc3nncn3C(C)C)cc2[nH]1 the results were NPYLR7 agonist 1 and NPYLR7 agonist max-min -1.
Cc1cc(CSc2nc3sc4c(c3c(=O)[nH]2)CCC(C)C4)no1 (stereo unspecified) was read as NPYLR7 agonist -7 and NPYLR7 agonist max-min -9.
For N#CCC(=O)NNC1=NS(=O)(=O)c2ccccc21 the results were NPYLR7 agonist -7 and NPYLR7 agonist max-min -12.
Screening O=C(CSc1cn[nH]n1)Nc1ccc(/C=C/c2ccccc2)cc1 returned NPYLR7 agonist -3 and NPYLR7 agonist max-min -8.
For CC(C)Cn1c(CN2CCCC(c3ccccc3)CC2)cnc1S(C)(=O)=O (stereo unspecified) the results were NPYLR7 agonist 3 and NPYLR7 agonist max-min -2.
For CC(=O)N=c1c(C#N)cc2c(=O)n3ccccc3nc2n1CCCOC(C)C the results were NPYLR7 agonist 1 and NPYLR7 agonist max-min 0.

Screening data: PubChem, Fisher Drug Discovery Resource Center

The list is partial; the hit share may differ from the screen's.
